Screening results as filed in PubChem.
VDR inh: inhibitors of human vitamin D receptor; VDR-SRC2-3 peptide fluorescence polarization, 2 h; Potency, µM, for inactives: max response, negative = inhibition, hits mostly inhibitors; 400,000 tested, 0.93% active; AID 504847; active means well fitted inhibition curve with a large enough effect; inconclusive means small, poorly fitted or top-dose-only effect, or another doubt; inactive means no such curve, though single readings can be large or run the other way; further: series mostly up to about 120 µM
Target sequence (P11473 whole entry, looked up): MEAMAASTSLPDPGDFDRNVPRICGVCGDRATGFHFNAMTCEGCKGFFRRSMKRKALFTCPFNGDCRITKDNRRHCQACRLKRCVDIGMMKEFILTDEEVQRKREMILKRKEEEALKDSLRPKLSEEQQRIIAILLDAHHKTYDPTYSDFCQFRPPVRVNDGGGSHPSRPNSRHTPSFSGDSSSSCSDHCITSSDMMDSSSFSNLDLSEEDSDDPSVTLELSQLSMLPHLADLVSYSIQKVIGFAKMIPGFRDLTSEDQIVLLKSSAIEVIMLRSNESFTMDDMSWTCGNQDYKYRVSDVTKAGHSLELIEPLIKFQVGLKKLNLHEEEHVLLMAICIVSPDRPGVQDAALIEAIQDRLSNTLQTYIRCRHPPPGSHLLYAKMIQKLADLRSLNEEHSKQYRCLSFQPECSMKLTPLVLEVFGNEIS
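Signal is fluorescence polarization, reporting how far test compounds block the interaction of VDR with the SRC2-3 coregulator peptide after a 2 h room-temperature incubation.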
The depositor's hits bear a star; ? = inconclusive; & = joins results of further samples. On the % scale 0 is the no-effect control and ±100 the full control effect; potency means the concentration at half of the fitted maximal effect. A portion of the library, so the mix of outcomes need not match the whole.

SMILES	VDR inh
COC(=O)c1ccccc1SCC(=O)Nc1ccc(N2CCOCC2)cc1	-4%
COCCN1C(=O)c2ccccc2C(C(=O)Nc2ccc3c(c2)OCCO3)C1c1ccc(F)cc1 (configuration not stated)	-13%
COc1ccc(CC(=O)Nc2ccc(S(=O)(=O)Nc3ncccn3)cc2)cc1OC	0%
O=C(CCCn1c(=O)c2ccccc2n(Cc2cccc(Cl)c2)c1=O)NCCc1ccc(Cl)cc1	27%
COC(=O)CCN1CCN(S(=O)(=O)c2ccc3c(c2)OCCO3)CC1	4%
CCc1ccc(C(=O)/C=C/c2cnn(C)c2C)s1	5%
O=C(O)CCC/C=C\C[C@@H]1[C@@H](/C=C/[C@H](O)C2Cc3ccccc3C2)[C@@H](F)C[C@@H]1O	-3%
CCCn1c2ccccc2c2nnc(SCC(=O)Nc3ncccn3)nc21	13%
CCNC(=S)Nc1cc(OC)c(NC(=O)c2ccco2)cc1OC	4%
O=C(CN1C(=O)NC2(CCCCCC2)C1=O)c1cccs1	-28%
C/C(=N\O)C1(C)N(O)C(C)(C)C(c2ccc(Br)cc2)=[N+]1[O-] (configuration not stated)	-5%
C=CCC[C@H](Cc1ccc(F)cc1)C(=O)OC[C@@H](C)NC(=O)[C@@H](CC=C)CC(=O)N[C@@H](CO)Cc1ccccc1	-6%

Next results follow:
SMILES	VDR inh
COc1ccc(C(=O)NNC(=O)CCC(=O)Nc2ccc(C)cc2C)cc1	1%
COc1ccc(N2CC(O)=C(c3nc(-c4ccc(F)cc4)cs3)C2=N)cc1	-14%
C/C(=N\NC(=O)c1ccco1)c1ccc(NC(=O)C(F)(F)F)cc1	-17%
CN(C)CCNC(=O)CCCn1c(=O)c2cccn2c2ccccc21	10%
CCn1c(C(=O)NCc2ccccc2OC)cc2sccc21	7%
CCN(CC)S(=O)(=O)c1ccc(NC(=O)CCNC(=O)c2ccco2)cc1	11%
Cc1cccc(Nc2c([N+](=O)[O-])ccc3nonc23)c1	-15%
CC(C)(C)C(=O)OCc1cn(-c2ccccc2)nn1	2%
Cc1ccccc1NC(=O)CSc1nc(-c2ccc(F)cc2)c2cccc(C)c2n1	-10%
CCOC(=O)C1CCN(C(=O)COC(=O)CNC(=O)c2ccc(OC)cc2)CC1	-11%
O=C(NC1CCC(NC(=O)C(F)(F)C(F)F)CC1)C(F)(F)C(F)F (configuration not stated)	11%
COc1ccc(CNCC(O)(c2ccccc2)c2ccccc2)cc1	-17%

Continued.
SMILES	VDR inh
CCOc1cc(CNS(=O)(=O)c2ccc3c(c2)CC(=O)N3C)cc(OCC)c1OCC	-14%&1%
CCC(CO)Oc1cc(NCc2cccc(C)c2)c2ncn(C(C)C)c2c1 (configuration not stated)	89µM*
CC(=O)N(CCc1cccc(C)c1)Cc1cc2cc(C)ccc2[nH]c1=O	-10%
CCC(CC)NC(=O)COC(=O)c1cc(Br)ccc1Cl	-9%
COc1ccccc1NS(=O)(=O)c1ccc(C(=O)NCC(c2ccc(F)cc2)N2CCOCC2)cc1 (configuration not stated)	21%
Cc1cccc(C)c1NC(=O)CSCCO	3%
CN1C(=O)/C(=C/c2ccc(C(F)(F)F)cc2)Sc2ccc(C(=O)N3CCN(c4ccccn4)CC3)cc21	-8%
Cc1cccc(-c2nc3scc(CCNC(=O)c4ccccc4Cl)n3n2)c1	5%
COC(=O)c1ccc(NC(=O)c2cc(=O)c3ccc(C)cc3o2)cc1	-7%
O=CNc1c(Br)cc2c(c1Br)Cc1cc(Br)ccc1-2	-9%
COc1ccc(C(=O)N2CCCCC2C(=O)Nc2ccc(-n3nc(C)cc3C)cc2)o1 (configuration not stated)	?
COc1cc(NS(=O)(=O)c2ccc(NC(=O)CN3C(=O)c4ccccc4C3=O)cc2)ncn1	12%

More entries follow:
SMILES	VDR inh
O=C(C1CCN(S(=O)(=O)c2cccs2)CC1)N1CCCCCC1	4%
CCN(C(=O)COC(=O)c1cc(OC)ccc1Br)C1CCS(=O)(=O)C1 (configuration not stated)	-3%
CC1(OC(=O)C2CCCC2)C(=O)C=C2C=C(c3ccsc3)N(C3CCCCC3)C=C2C1=O (configuration not stated)	-14%
O=C(Nc1ccc2ccccc2c1)c1ccc(NS(=O)(=O)c2ccc(Br)s2)cc1	-8%
CCS(=O)(=O)N1Cc2ccccc2CC1C(=O)Nc1cccc(S(=O)(=O)N(C)C)c1 (configuration not stated)	6%
Cc1ccc(Cl)cc1NC(=O)C(Cc1ccccc1)N1C(=O)C2C3CCC(C3)C2C1=O (configuration not stated)	-8%
CCOC(=O)NC(=S)c1ccc[nH]1	-7%
CCC(C)NS(=O)(=O)c1cccs1 (configuration not stated)	1%
c1ccc(CC2CNc3ccccc3CN2)cc1 (configuration not stated)	0%
CC(C)N=c1scc(-c2ccco2)n1/N=C/c1ccc(O)c(O)c1	2%
O=C(O)c1ccc(N2C(=O)c3cccnc3C2=O)cc1	12%
O=C(Nc1ccc(-c2cscn2)cc1)C1CCCN(Cc2ccccc2)C1 (configuration not stated)	-8%

(continued)
SMILES	VDR inh
COc1ccccc1-n1c(CNC(=O)c2ccccc2)nnc1SCC(=O)Nc1nnc(C)s1	-12%
CCCCCCn1c(Br)nc2c1c(=O)n(C)c(=O)n2C	6%
CCN(CC)C(=O)C1CCN(Cc2ccc(Br)cc2)CC1	0%
CN(C)c1ccc(C(=C2C=CC(=[N+](C)C)C=C2)c2ccccc2)cc1	?
CCOc1ccc(C(=O)c2ccc(OC)c(O)c2O)cc1	?
COc1ccc(N2CC(C(=O)N3CCN(Cc4ccc5c(c4)OCO5)CC3)CC2=O)cc1 (configuration not stated)	8%
CC1CCc2c(sc3nnn(CC(=O)Nc4ccccc4Cl)c(=O)c23)C1 (configuration not stated)	4%
Nc1cc([N+](=O)[O-])ccc1Nc1ccccc1	-2%
CCC(CO)Oc1cc(NC(=O)c2ccccc2)c2ncn(C(C)C)c2c1 (configuration not stated)	-15%
O=C(C1=C(O)C(=O)N(Cc2ccccc2)C1c1ccco1)c1ccco1 (configuration not stated)	-2%
O=C(COc1ccccc1)N=C1SC2CS(=O)(=O)CC2N1c1ccccc1 (configuration not stated)	-8%
COc1cc(OC)c(C2C(C(=O)Nc3ccccc3)=C(C)Nc3ncnn32)cc1OC (configuration not stated)	-5%

Next entries
SMILES	VDR inh
CCOc1ccc2[nH]c(C)c(CN3CCCCC3)c(=O)c2c1	-12%
Cc1cccc(NC(=O)CCCn2c(C)c3cnn(-c4ccccc4)c(=O)c3c2C)c1C	9%
COc1ccccc1-c1nccc(Nc2ccc(F)cc2)n1	50µM*
O=C(Nc1ccc(Br)cn1)c1cccc2c1-c1ccccc1C2=O	-5%
CCCc1cc(=O)n2[nH]c(CCc3ccccc3)nc2n1	-1%
N#Cc1c(C(F)(F)F)cc(-c2cccs2)nc1SCC(=O)Nc1ccc(Cl)cc1	-25%
Brc1ccc(-c2csc(N/N=C/c3ccco3)n2)cc1	-5%
COc1ccc(NC(=O)Cn2c(=O)oc3cc(S(=O)(=O)N4CCCC4)ccc32)cc1OC	9%
Cc1ccc2[nH]c(=O)c3cc(C(=O)N(CCCOC(C)C)Cc4ccco4)sc3c2c1	-18%&-17%
Cc1ccc(S(=O)(=O)c2ccc([N+](=O)[O-])cn2)cc1	25µM*
CN(C)S(=O)(=O)c1cccc(COC(=O)CNC(=O)c2ccc(Br)o2)c1	2%
Cn1c(=O)oc2cc(S(=O)(=O)N3CCCC(C(=O)N4CCN(c5ccc(F)cc5)CC4)C3)ccc21 (configuration not stated)	-11%

Retrieved by structure from the entries so far:
SMILES	VDR inh
COc1ccc(NC(=O)Cn2c(=O)oc3cc(S(=O)(=O)N4CCCC4)ccc32)cc1OC	9%
CCOc1ccc2[nH]c(C)c(CN3CCCCC3)c(=O)c2c1	-12%
N#Cc1c(C(F)(F)F)cc(-c2cccs2)nc1SCC(=O)Nc1ccc(Cl)cc1	-25%
Cc1ccc(S(=O)(=O)c2ccc([N+](=O)[O-])cn2)cc1	25µM*

The listing continues:
SMILES	VDR inh
Cc1ccc2oc(C(=O)Nc3ccc(S(=O)(=O)N(C)Cc4ccccc4)cc3)cc(=O)c2c1	21%
COc1ccccc1/C=C/CN1CCN(c2ccccc2)CC1	10%
O=c1[nH]c(=O)n(CCO)c2nnn(Cc3ccccc3)c12	8%
Cc1ccc(SCC(=O)Nc2cccc(NC(=O)c3ccco3)c2)cc1	11%
Cc1cc2cc(C#N)c(SCC(=O)Nc3nonc3C)nc2cc1C	5%
CCN(CC)C(=O)COC(=O)c1ccc(C)c(NC(=O)c2ccco2)c1	4%
COc1ccc(S(=O)(=O)N(C)C)cc1NC(=O)CN1C(=O)NC2(CCCC2)C1=O	1%
OCCC1CN(Cc2cccn2-c2nccs2)CCN1C1CCCCC1 (configuration not stated)	8%
CCOC(=O)C1=C(C)N=c2s/c(=C\c3cccc(OCC(=O)O)c3)c(=O)n2C1c1ccccc1 (configuration not stated)	?
Cc1cccc(C(=O)NC2CC3CCCC(C2)N3C(=O)NC2CCCCC2)c1 (configuration not stated)	-8%
O=C(/C=C/c1ccc(F)cc1)N1CCCN(C(=O)/C=C/c2ccc(F)cc2)CC1	9%
Cc1ccc(NC(=O)CCN2C(=O)OC(C)(C)C2(C)O)cc1 (configuration not stated)	11%

Next results
SMILES	VDR inh
COc1ccc(NC(=O)/C=C/c2ccc(OC)c(OC)c2)cn1	-11%
Cc1ccc(S(=O)(=O)Nc2ccccc2CNc2ccccn2)cc1	-10%
CCCCN(CC)CCCNC(=O)c1cn(C)c(=O)c2c1c1ccccc1n2C	-11%&-18%
COc1ccc(-c2cn3nc(N4CCC(C(=O)NCc5ccccc5F)CC4)sc3n2)cc1	-8%
Cc1scc(C(=O)Nc2ccon2)c1-c1ccccc1	-14%
COC(=O)c1ccc(Cl)c(S(=O)(=O)N2CCCC2)c1	11%
COc1ccc(NC(=O)c2ccc(Cl)c(S(=O)(=O)N3CC(C)OC(C)C3)c2)cn1 (configuration not stated)	18%
CCN(CC)S(=O)(=O)c1ccc(N2CCOCC2)c(NC(=O)c2ccc(=O)n(C)n2)c1	-13%
COC(=O)[C@H](C)NC(=O)Nc1cc(Cl)ccc1C	-3%
O=c1c(Cc2ccc(F)cc2)c(O)ccn1Cc1ccc(Cl)cc1Cl	19%
CC1CCN(Cc2nc3c(c(=O)n(C)c(=O)n3C)n2CCc2ccccc2)CC1	-5%
Cc1ccc2c(NC(=O)C3CC3)cccc2n1	11%

Later entries.
SMILES	VDR inh
C=CCNC(=O)c1onc(CSc2ccccc2F)c1C(=O)O	2%
CC(C)Oc1ccc(CNC(=O)C2COc3ccccc3C2)cc1 (configuration not stated)	6%
COCCNC(=O)C(c1ccc(O)cc1)N(C(=O)CCC(=O)Nc1nccs1)c1ccc(C)cc1 (configuration not stated)	9%
O=C(Nc1ccc(F)cc1)C1CC2CCC1C2 (configuration not stated)	-5%
CC(C)Oc1cccc(C(=O)C2CCCN(C(=O)c3ccnn3C)C2)c1 (configuration not stated)	-15%
Cc1ccn2c(NC3CCCCC3)c(-c3cccc(-c4cccc(Cl)c4)c3)nc2c1	-25%
O=C(NCCc1ccccc1F)N[C@@H](Cc1ccccc1)C(=O)O	-4%
Cc1ccc(CNC(=O)CNC(=O)c2ccco2)cc1	-7%
CCCOC1CCCN(C(=O)c2ccc(OC3CCN(Cc4ccccn4)CC3)cc2)C1 (configuration not stated)	17%
CCc1ccccc1N(C)C(=O)Nc1cn(CC(C)C)c(=O)c2ccccc12	9%
O=C(c1ccco1)N1CCC2(CCN(Cc3ccccc3)CC2)CC1	9%
COc1ccc(N(C(=O)Cn2nnc3ccccc32)C(C(=O)NCc2ccco2)c2ccncc2)cc1 (configuration not stated)	-6%

The list continues:
SMILES	VDR inh
O=C(c1cnc2c(c1)COc1ccccc1-2)c1ccccc1O	5%
CS(=O)(=O)N(CC(=O)NCc1ccc2c(c1)OCO2)Cc1ccccc1	?
O=Cc1cccn1-c1ccc(O)cc1	-4%
CC(C)(C)S(=O)(=O)N1Cc2ccc(CO)cc2[C@@H]1CCO	3%
COc1ccc(C(=O)NCCCSc2ccccc2)cc1F	0%
CSc1n[nH]c(=O)n1-c1cccc(Cl)c1	3%
Cc1cccc(NC(=O)CCSc2nnc(Cc3ccccc3)o2)c1	-12%
C/C(CC(=O)Nc1ccc(OCc2ccccc2)cc1)=N\NC(=O)C(=O)Nc1cccc(C)c1	-7%
COc1cc(O)oc1C=Nc1ccc(C(F)(F)F)cc1	-6%
COc1ccc(OC)c(NC(=O)C(CC(C)C)NC(=O)C2CCCCC2)c1 (configuration not stated)	-15%

Molecules from the list above with a Cl atom, in the order listed:
SMILES	VDR inh
O=C(CCCn1c(=O)c2ccccc2n(Cc2cccc(Cl)c2)c1=O)NCCc1ccc(Cl)cc1	27%
CCC(CC)NC(=O)COC(=O)c1cc(Br)ccc1Cl	-9%
Cc1cccc(-c2nc3scc(CCNC(=O)c4ccccc4Cl)n3n2)c1	5%
Cc1ccc(Cl)cc1NC(=O)C(Cc1ccccc1)N1C(=O)C2C3CCC(C3)C2C1=O (configuration not stated)	-8%
CC1CCc2c(sc3nnn(CC(=O)Nc4ccccc4Cl)c(=O)c23)C1 (configuration not stated)	4%
N#Cc1c(C(F)(F)F)cc(-c2cccs2)nc1SCC(=O)Nc1ccc(Cl)cc1	-25%
COC(=O)c1ccc(Cl)c(S(=O)(=O)N2CCCC2)c1	11%
COc1ccc(NC(=O)c2ccc(Cl)c(S(=O)(=O)N3CC(C)OC(C)C3)c2)cn1 (configuration not stated)	18%
COC(=O)[C@H](C)NC(=O)Nc1cc(Cl)ccc1C	-3%
O=c1c(Cc2ccc(F)cc2)c(O)ccn1Cc1ccc(Cl)cc1Cl	19%
Cc1ccn2c(NC3CCCCC3)c(-c3cccc(-c4cccc(Cl)c4)c3)nc2c1	-25%
CSc1n[nH]c(=O)n1-c1cccc(Cl)c1	3%
